VCAM-1 down: inhibitors of TNFa-induced VCAM-1 surface display, cell-based, plate reader, pooled HUVEC, TNFa stimulus (AID 454); HUVEC TNFa-induced VCAM-1 surface immunofluorescence, plate reader; numbers were filed only for top-ranked candidate wells; inhibition, % at 5 µM; 10,000 compounds, 0.2% hits;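 active = compound among top-ranked inhibitors of TNF-induced VCAM-1 adhesion protein staining, with the hit upheld by image or statistical review; inactive = the rest, including hits rejected on review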;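 also: 0% = TNFa with vehicle and 100% = cells without TNFa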
VCAM-1 up imaging: enhancers of VCAM-1 display on endothelial cells, imaging, high-content imaging, pooled HUVEC, TNFa stimulus (AID 457) | Pooled HUVEC, TNFa-induced VCAM-1 immunofluorescence imaging; hits of this screen are not shown here | calls only | 10,000 compounds, 0.2% hits;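 active = a top-ranked rise in VCAM-1 staining upheld on image or statistical review; inactive = the rest, including candidates rejected on review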;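 also: compounds tested at 5 µM in the well; cells exposed to compound for 24 hours before fixing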
FPRL1 binder: ligands of human FPRL1, also counter-screen for FPR ligands; 24,000 compounds, 0.3% hits; inhibition, %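 (tested at 6.7 µM)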; P25090; FPRL1-expressing cells, fluorescent ligand binding inhibition, flow cytometry; AID 441;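 also: 0% = buffer alone and 100% = receptor blocker peptide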
Target sequence (P25090 whole entry, looked up): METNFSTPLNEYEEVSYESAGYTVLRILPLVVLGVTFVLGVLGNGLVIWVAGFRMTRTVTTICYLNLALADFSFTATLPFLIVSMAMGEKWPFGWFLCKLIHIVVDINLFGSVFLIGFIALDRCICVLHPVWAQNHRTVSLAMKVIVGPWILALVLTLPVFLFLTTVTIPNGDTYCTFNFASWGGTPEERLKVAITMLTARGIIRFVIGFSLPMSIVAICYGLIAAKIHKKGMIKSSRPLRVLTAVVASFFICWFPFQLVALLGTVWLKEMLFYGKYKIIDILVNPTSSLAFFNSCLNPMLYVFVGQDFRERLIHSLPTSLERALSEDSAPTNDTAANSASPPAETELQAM
FPR binder: binds the human formylpeptide receptor FPR; FPR-expressing cells, fluorescent ligand binding, flow cytometry; inhibition, %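 (tested at 6.7 µM)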; 24,000 compounds, 0.74% hits;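 also: 0% = buffer wells and 100% = receptor blocker peptide wells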
Target sequence (P21462 whole entry, looked up): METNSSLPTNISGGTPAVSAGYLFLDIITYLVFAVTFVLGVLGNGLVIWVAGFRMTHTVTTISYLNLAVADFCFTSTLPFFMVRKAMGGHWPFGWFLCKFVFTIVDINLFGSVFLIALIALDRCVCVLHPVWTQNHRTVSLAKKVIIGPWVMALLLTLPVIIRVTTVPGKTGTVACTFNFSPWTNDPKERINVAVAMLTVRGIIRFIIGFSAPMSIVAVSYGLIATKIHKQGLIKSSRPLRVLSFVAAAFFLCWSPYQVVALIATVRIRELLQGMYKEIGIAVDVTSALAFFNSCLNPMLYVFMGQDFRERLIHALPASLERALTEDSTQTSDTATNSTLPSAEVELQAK
VCAM-1 down imaging: suppression of endothelial VCAM-1 upregulation – imaging, high-content imaging, pooled HUVEC, TNFa stimulus (AID 456); HUVEC TNFa-induced VCAM-1 surface expression, immunofluorescence imaging; numbers were filed only for top-ranked candidate wells; inhibition, % at 5 µM; hits with a dose series show IC50 in µM; 10,000 compounds, 0.2% hits;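 active = top tenth filtered wells with inhibition above zero that passed visual or statistical confirmation; inactive = the rest, including hits rejected on review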;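 also: 0% = stimulated vehicle wells and 100% = unstimulated cells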
* hit, by the source's call; i = inactive; nt = no result given.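 The calls were made as follows, unless noted: active = mean above 30%; inconclusive = self-fluorescent; inactive = the rest.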

compound,VCAM-1 down,VCAM-1 up imaging,FPRL1 binder,FPR binder,VCAM-1 down imaging
Cc1cc(C)n2nc(SCc3nc4ccccc4[nH]3)nc2n1,i,i,7,0,i
CCOc1ccccc1-n1c(SCC(=O)NCc2ccco2)nnc1-c1ccncc1,i,i,-1,-4,i
CCOC(=O)c1cc2c(=O)n3ccccc3nc2n(Cc2ccccc2)c1=N,i,i,-3,4,i
Cc1csc2ncc(C(=O)N3CCc4ccccc43)c(=O)n12,i,i,-1,-9,i
Cc1oc2c(CN3CCCC3)c(O)ccc2c(=O)c1-c1ccc(Br)cc1,nt,nt,1,-11,nt
Cn1c(=O)cc(SCC(=O)NCC2CCCO2)c2ccccc21 (stereo unspecified),nt,nt,11,11,nt
CCn1c2ccccc2c2cc(NC(=O)Cc3ccc(S(=O)(=O)N4CCOCC4)s3)ccc21,i,i,-1,-1,i
O=C(O)CCc1cc(I)c(Oc2ccc(O)c(I)c2)c(I)c1,i,i,-2,17,i
CC1CCCCC1NC(=O)c1nnc(Cc2ccc(Cl)cc2)o1 (stereo unspecified),nt,nt,-5,-3,nt
CCCCn1c(-c2nonc2NC(=O)c2ccccc2Cl)nc2ccccc21,nt,nt,-9,2,nt
CCOC(=O)N1CCC(NC(=O)c2ccc3snnc3c2)CC1,nt,nt,2,0,nt
CCN(Cc1ccccc1)S(=O)(=O)c1ccc(S(=O)(=O)N2CCN(CCC#N)CC2)cc1,nt,nt,2,7,nt
CCc1ccc(NS(=O)(=O)c2ccc3[nH]cc(C(=O)N4CCCCC4)c(=O)c3c2)cc1,i,i,-12,-9,i
O=C(CSc1nnc(Cc2cccs2)n1Cc1ccco1)Nc1cccc(Cl)c1,i,i,-5,4,i
CC(=O)c1ccc(OCC(O)CN2CC(C)OC(C)C2)cc1 (stereo unspecified),nt,nt,-1,0,nt
CCOc1cccc2cc(-c3csc(NC(=O)CCC(=O)N4CCN(C)CC4)n3)c(=O)oc12,nt,nt,2,4,nt
CCc1nnc(NC(=O)C2CC(=O)N(Cc3ccco3)C2)s1 (stereo unspecified),i,i,-1,-1,i
COc1ccc(OC)c2[nH]c(=O)c(CCNC(=O)c3ccc(Br)o3)cc12,nt,nt,18,13,nt
c1ccc(-c2nnc(-c3ccco3)n2-c2ccccc2)cc1,i,i,8,2,i
COc1cccc(NS(=O)(=O)c2ccc3[nH]cc(C(=O)NCCCOC(C)C)c(=O)c3c2)c1,nt,nt,6,6,nt
COC(=O)c1sc(N)c(C(=O)OC)c1CSc1nc2sc3c(c2c(=O)n1C)CCC3,i,i,-8,20,i
CC(C)n1c(SCc2ccccc2F)nc2c1c(=O)n(C)c(=O)n2C,nt,nt,13,26,nt
C#CCN1C(=O)C(O)(CC(=O)c2ccc3c(c2)OCCO3)c2ccccc21 (stereo unspecified),nt,nt,0,2,nt
O=C(NCCN1CCOCC1)c1ccc2c(c1)ncn2C1CCCC1,nt,nt,13,10,nt
CCOC(=O)N1CCN(C(=O)CSCC(=O)N=c2sc3cc(OC)ccc3n2C)CC1,nt,nt,-5,-1,nt
CCN1CCN(c2ncnc3c2cnn3-c2ccc(C)cc2C)CC1,i,i,-1,-1,i
O=C(CSc1nnc(CNC(=O)c2ccccc2F)o1)c1ccc(Cl)cc1,nt,nt,-2,-4,nt
CN1CCN(C(CNS(=O)(=O)c2ccc(Cl)cc2)c2cccnc2)CC1 (stereo unspecified),nt,nt,-1,-1,nt
CCOC(=O)c1cccnc1SC(CC)C(=O)N1CCOCC1 (stereo unspecified),nt,nt,2,3,nt
COC(=O)c1ccccc1NC(=O)CSc1nnnn1C1CCCCC1,i,i,-1,-6,i
CCn1cc(-c2cc(C(F)(F)F)n3nc(C(=O)O)cc3n2)c(C)n1,nt,nt,8,-4,nt
COc1ccc(NC(=O)Nc2cccc(C)n2)cc1,nt,nt,6,0,nt
Cc1ccc(N(CC(O)CN2CCCC2)S(=O)(=O)c2ccc(C)cc2)cc1 (stereo unspecified),i,i,4,-1,i
COc1cccc(-c2csc(N3CCN(CC(=O)Nc4ccc5c(c4)OCO5)CC3)n2)c1,i,i,-10,-1,i
Cc1cnnc2c1-c1nonc1CC2,i,i,1,6,i
Cc1cc(N2CCN(C)CC2)nc2ccc(NC(=O)c3ccc4c(c3)OCO4)cc12,nt,nt,4,-6,nt
CCNC(=O)CC1C(=O)N(c2ccc(F)cc2)C(=O)N1CCc1ccc(OC)cc1 (stereo unspecified),nt,nt,10,0,nt
Cc1cccc(N2C(=O)CC(N3CCN(c4cccc(C(F)(F)F)c4)CC3)C2=O)c1 (stereo unspecified),i,i,-4,1,i
O=c1[nH]c2ccc(S(=O)(=O)N3CCN(C4CCCCC4)CC3)cc2[nH]c1=O,i,i,2,-8,i
O=C(Nc1cccc(-c2cn3cccnc3n2)c1)c1ccc(Br)o1,nt,nt,14,12,nt
CCS(=O)(=O)c1nc2ccccc2n1CC(=O)N1CCCCC1,i,i,-3,1,i
COCCNC(=O)CN1C(=O)COc2ccc(Cl)cc21,nt,nt,1,-14,nt
OCCN1CCN(c2ncnc3ccc(Br)cc23)CC1,nt,nt,6,0,nt
O=C(CN1CCOc2ccccc21)NCc1ccco1,nt,nt,5,-6,nt
CCOc1ccc(NC(=O)N2CC=C(n3c(=O)[nH]c4ccccc43)CC2)cc1,nt,nt,2,6,nt

Random excerpt: six entries already listed.
compound,VCAM-1 down,VCAM-1 up imaging,FPRL1 binder,FPR binder,VCAM-1 down imaging
CCOc1ccc(NC(=O)N2CC=C(n3c(=O)[nH]c4ccccc43)CC2)cc1,nt,nt,2,6,nt
CCn1cc(-c2cc(C(F)(F)F)n3nc(C(=O)O)cc3n2)c(C)n1,nt,nt,8,-4,nt
COCCNC(=O)CN1C(=O)COc2ccc(Cl)cc21,nt,nt,1,-14,nt
O=C(Nc1cccc(-c2cn3cccnc3n2)c1)c1ccc(Br)o1,nt,nt,14,12,nt
Cc1ccc(N(CC(O)CN2CCCC2)S(=O)(=O)c2ccc(C)cc2)cc1 (stereo unspecified),i,i,4,-1,i
O=c1[nH]c2ccc(S(=O)(=O)N3CCN(C4CCCCC4)CC3)cc2[nH]c1=O,i,i,2,-8,i

(listing goes on)
compound,VCAM-1 down,VCAM-1 up imaging,FPRL1 binder,FPR binder,VCAM-1 down imaging
O=C(NCc1ccccc1Cl)C1CCCN(S(=O)(=O)c2cnc[nH]2)C1 (stereo unspecified),nt,nt,3,-2,nt
CCOC(=O)CSc1n[nH]c(-c2ccco2)n1,nt,nt,7,2,nt
Cc1onc(-c2c(F)cccc2Cl)c1C(=O)Nc1nnc(C2CC2)s1,nt,nt,2,28,nt
COCCn1c(=O)[nH]c2cc(C(=O)NCC3CCCO3)ccc2c1=O (stereo unspecified),nt,nt,-3,2,nt
O=C(CN1C(=O)COc2ccccc21)N1CCN(c2ccccc2F)CC1,nt,nt,-2,-7,nt
COc1ccc(OCC(O)Cn2c(Br)nc3c2c(=O)[nH]c(=O)n3C)cc1 (stereo unspecified),i,i,-5,-4,i
COC(=O)c1sc(NC(=O)c2ccoc2C)nc1C,i,i,8,20,i
Cc1sc(NC(=O)c2ccco2)c(C(c2ccncc2)N2CCOCC2)c1C (stereo unspecified),nt,nt,-4,3,nt
COc1ccc(-n2c(Cc3cc(=O)[nH]c(=O)[nH]3)nnc2SCc2ccccc2)cc1,nt,nt,-2,2,nt
COC(=O)c1cn(C(=O)OC)c2ccccc12,i,i,1,0,i
Cc1nn(C(=O)c2cccnc2)c(C)c1C,nt,nt,-7,-5,nt
Cc1nnc(NC(=O)Nc2cccc(Cl)c2)s1,i,i,-9,-9,i
O=C(CN1C(=O)c2cccc3cccc1c23)NCC1CCCO1 (stereo unspecified),i,i,-1,-8,i
CC1(C)CC(=O)N(CC(=O)NCc2ccccc2)c2ccccc2S1(=O)=O,i,i,4,8,i
Cc1nc2c(-c3ccccc3)c(C)nn2c(C)c1CC(=O)O,nt,nt,1,-2,nt

Continuation:
Results follow in this order: VCAM-1 down, VCAM-1 up imaging, FPRL1 binder, FPR binder, VCAM-1 down imaging
COC(=O)c1oc2ccc(Br)cc2c1NC(=O)CN1CCN(C)CC1
  i, i, 9, 0, i
CCN1CCN(c2ncnc3c2oc2nc(C)c4c(c23)CC(C)(C)OC4)CC1
  i, i, 1, -2, i
CCOC(=O)Nc1ccccc1N1C(=O)c2ccccc2C1=O
  nt, nt, 0, -2, nt
Cc1cc(=O)n2nc(N3CCC(C(=O)N4CCN(Cc5ccccc5)CC4)CC3)sc2n1
  i, i, 2, 5, i
CCOc1cc(-c2ccccc2)nc(N)n1
  nt, nt, -2, -1, nt
CCOC(=O)C(CC)Sc1ncnc2nc[nH]c12 (stereo unspecified)
  i, i, 2, 0, i
CC(=O)N1CCC(=O)N(C(C)C)c2ccccc21
  nt, nt, 1, 0, nt
O=C(O)CCSCc1ccccc1F
  nt, nt, 0, 4, nt
O=C(c1ccco1)N1CCN(CC2CC3C=CC2C3)CC1 (stereo unspecified)
  i, i, 0, -8, i
CC(C)c1cc(C(=O)NCc2ccco2)no1
  i, i, -4, 4, i
CCOC(=O)C1CCCN(c2c(NCc3ccco3)c(=O)c2=O)C1 (stereo unspecified)
  i, i, -1, -3, i
Cc1ccccc1-c1nc(CS(=O)(=O)CC(=O)N(C)C2CCCCC2)c(C)o1
  i, i, -2, -3, i
CC(=O)Nc1cc(C(=O)N2CCOCC2)ccc1S(=O)(=O)c1ccc(C)cc1
  nt, nt, 13, -1, nt
CCc1nnc(NC(=O)CSc2nnc(-c3ccccc3OC)n2-c2ccccc2)s1
  i, i, 0, -3, i
Oc1ccccc1Oc1ncc(Br)c(N2CCOCC2)n1
  nt, nt, 3, -2, nt
Cc1ccc(N2C(=O)c3oc4ccccc4c(=O)c3C2c2cccnc2)nc1 (stereo unspecified)
  nt, nt, -2, 2, nt
O=C(Nc1ccc(F)cc1)c1oc2ccccc2c1NC(=O)C1CCCC1
  nt, nt, 4, -3, nt
CCOC(=O)c1ccc(NC(=O)Nc2ccc3c4c(cccc24)C(=O)N3CC)cc1
  nt, nt, 48*, -18, nt
O=C(CCSCCc1ccccn1)Nc1ccccn1
  nt, nt, 4, -7, nt
COc1cc(C(=O)Nc2ccc(-n3cnnn3)c(C)c2)cc(OC)c1OC
  i, i, -3, -8, i
CCOC(=O)N1CCC(NC(=O)c2csc3c2CCCC3)CC1
  nt, nt, -2, 1, nt
O=C(NCc1ccco1)c1noc2c1CCCCC2
  i, i, -1, -1, i
O=C(CCn1c(=O)c2ccccc2n(CC(=O)NCCC2=CCCCC2)c1=O)NCc1ccco1
  i, i, -2, -3, i
Cc1cc(C)cc(Nc2cc(=O)n(C3CCCCC3)c(=O)[nH]2)c1
  nt, nt, 10, 1, nt
CCOCCOC(=O)C1=C(C)Nc2ccc(C)cc2S1
  nt, nt, -3, 1, nt
O=C(c1ccco1)N(Cc1cc2ccccc2[nH]c1=O)C1CCCCC1
  i, i, 8, -6, i
CCOC(=O)/C(C#N)=C1\Nc2ccccc2N=C1N(CC(C)C)CC(C)C
  i, i, 7, -9, i
CCCNC(=O)CS(=O)Cc1nc(-c2ccc(OC)cc2)oc1C (stereo unspecified)
  nt, nt, 1, 2, nt
COC(=O)c1ccccc1NC(=O)c1cc(-c2cccs2)on1
  nt, nt, 9, 9, nt
O=C(CSc1ccc2nnc(-c3cccc(F)c3)n2n1)NCc1ccco1
  nt, nt, 2, -3, nt
CCOC(=O)COc1ccc(S(=O)(=O)N2CCc3ccccc3C2)cc1
  i, i, -1, -11, i
Cc1noc(C)c1S(=O)(=O)Nc1ccc(C(=O)NCCc2ccccc2)cc1
  nt, nt, 1, -6, nt
Cc1ccccc1Cn1nc(C)c(NC(=O)c2noc3c2CCc2ccccc2-3)c1C
  i, i, 3, 8, i
CSc1ccc2nnc(-c3cccc(F)c3)n2n1
  nt, nt, 1, 0, nt

Source: PubChem (several laboratories)

Some of the compounds tested; count on the stated rates, not on these rows.
